Screens from PubChem.
ClpP mod = qHTS Assay for Activators of ClpP. purified B. subtilis ClpP, FRET peptide cleavage, 20 min. 340,000 compounds, 1.9% hits. ATP-dependent Clp protease proteolytic subunit (Bacillus subtilis (strain 168)), P80244. AID 651965, 2013. Potency, µM (top dose mostly 57.5 µM), for the others: top-dose activity change, negative = active; active = well fitted falling curve with a large enough effect; inconclusive = small, poorly fitted or top-dose-only effect; inactive = no such curve, though single readings can be large or run the other way; note: potency is the fitted concentration of half-maximal effect; the source files actives as falling curves though it sought activators and does not explain the sign; nearly all actives have a fitted effect of over 65% in size; many hits overshoot -100%
Target sequence (P80244 whole entry, looked up): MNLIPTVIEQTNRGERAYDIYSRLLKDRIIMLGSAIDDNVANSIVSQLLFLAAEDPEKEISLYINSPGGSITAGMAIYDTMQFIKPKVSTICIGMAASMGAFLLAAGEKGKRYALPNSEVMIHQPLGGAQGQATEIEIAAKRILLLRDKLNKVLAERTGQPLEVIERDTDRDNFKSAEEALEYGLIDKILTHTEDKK
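FRET quenching reversal measured ClpP activation: 10 microg/mL B. subtilis ClpP at pH 8 with the FRET-FV decapeptide, read at 430 nm after 320 nm excitation. The 20-min minus 0-min signal was scaled between DMSO/no-enzyme wells and ADEP (5.8 microM final).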
Menin MLL FP FL = inhibitors of human menin-MLL interaction, wild-type MLL peptide | Fluorescence polarization, fluorescein-MLL peptide displacement from menin | 290,000 tested, under 10 active | FP activity change, % at 61.4 µM; inconclusive = falling polarisation curve, or a change in total fluorescence; inactive = total fluorescence flat and polarisation flat or rising; no compound was filed as active; the % refers to the polarisation; negative = inhibition;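 note: % of control where 0% means no effect; inhibitors lower the polarisation; unlabelled MLL peptide was the positive control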
TRPML1 ag = agonists of human TRPML1 channel. TRPML1-expressing cells, Ca2+ dye fluorescence, FDSS; host cell line not named in the record; reference of the full effect not given here. activation, % (test concentration not listed). 410,000 compounds, 0.12% hits; in the data active = activation above about 50%; inconclusive = about 30% to 50%; inactive = below about 30%; note: 0% is about no effect; the text of the record puts the active cut at 80%
Target sequence (Q9GZU1 whole entry, looked up): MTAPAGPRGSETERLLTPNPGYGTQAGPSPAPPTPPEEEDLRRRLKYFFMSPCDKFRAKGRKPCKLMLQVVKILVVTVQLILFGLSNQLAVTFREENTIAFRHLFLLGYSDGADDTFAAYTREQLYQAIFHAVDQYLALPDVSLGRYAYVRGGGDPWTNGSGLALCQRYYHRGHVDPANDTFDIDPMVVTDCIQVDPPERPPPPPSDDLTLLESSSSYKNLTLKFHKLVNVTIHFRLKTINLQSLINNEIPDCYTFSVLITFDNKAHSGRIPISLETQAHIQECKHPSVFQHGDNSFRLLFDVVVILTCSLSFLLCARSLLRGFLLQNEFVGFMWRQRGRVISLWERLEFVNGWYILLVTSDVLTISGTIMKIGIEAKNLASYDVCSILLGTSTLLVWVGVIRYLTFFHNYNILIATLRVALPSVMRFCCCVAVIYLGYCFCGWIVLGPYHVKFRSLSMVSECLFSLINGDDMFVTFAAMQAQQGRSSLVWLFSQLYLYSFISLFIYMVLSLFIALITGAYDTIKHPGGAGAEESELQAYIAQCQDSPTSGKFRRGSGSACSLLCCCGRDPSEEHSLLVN
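Tetracycline-induced TRPML1-DL cells are seeded and incubated overnight before loading with a no-wash Ca2+ dye and quencher. Agonist activity is taken from the 110 s fluorescence read following compound pin-transfer on an FDSS, before EC80 54-4 challenge.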
Sfp inh = inhibitors of Bacillus subtilis Sfp phosphopantetheinyl transferase; Q9F4F7; Biochemical Sfp PPTase activity, qHTS; Potency, µM, for the others: max response, negative = inhibition, actives largely listed as inhibitors; 310,000 compounds, 3.5% hits; AID 1490; active = well fitted inhibition curve with a large enough effect; inconclusive = small, poorly fitted or top-dose-only effect, or another doubt; inactive = no such curve, though single readings can be large or run the other way;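 note: the enzyme is Sfp with the accession as filed and its product quenches rhodamine fluorescence; potency is the fitted concentration of half-maximal effect; 0% = enzyme reaction without inhibitor and -100% = no enzyme wells; top concentration of the series not given in the record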
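Buffer: 50 mM Hepes-Na pH 7.6, 10 mM MgCl2, 0.01% Nonidet P-40, 0.01% BSA. Enzyme 15 nM, pre-exposed to compound 15 min; substrates then added and fluorescence change tracked over 30 min.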
PINK1 expr mod = modulators of PINK1 expression; PINK1 immunofluorescence, high-content cytometry, 24 h; Potency, µM (highest dose often 76.6 µM), for inactives: top-dose activation (PINK1 increase), actives largely listed as activators; 410,000 compounds, 0.2% hits; AID 624263; active = well fitted activation curve with a large enough effect; inconclusive = small, poorly fitted or top-dose-only effect; inactive = flat fitted curve, though single readings scatter; cell line not stated here;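 note: potency is the fitted concentration of half-maximal effect; % of control where 0% means no effect; nearly all actives have a fitted effect of over 65% in size; a mitochondrial uncoupler was the plate control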
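Cells are seeded, rested 12 hours, then given compound at five concentrations or DMSO for 24 hours. After fixation, blocking and antibody staining, PINK1 amount and mitochondrial localization are scored; CCCP serves as control.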
TRPV1 potentiator = human TRPV1 potentiation | TRPV1-expressing cells, Fluo-8 calcium influx, capsaicin EC20 potentiation; host cell line not named in the record; control for the full effect not named in the record | Q8NER1 | potentiation, % at 8.33 µM | AID 540277 | 320,000 compounds, 0.02% hits; active means potentiation above 80%; inconclusive means 30% to 80%; inactive means below 30%; note: 0% is about no effect
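TRPV1-expressing cells were cultured overnight at 35.5C and loaded with Fluo-8 calcium dye for 40 to 90 min at room temperature. After a 10 s baseline, compound was added and calcium influx was read kinetically for 3 min (ex 480/em 520 nm).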
TRPML1 blocker = blocks the human TRPML1 channel. activity change, negative = inhibition, % (concentration not given with the values). Q9GZU1. 390,000 compounds, 0.02% hits. TRPML1-inducible cells, Ca2+ dye fluorescence, FDSS; hits give low values; inhibition of EC80 agonist-evoked calcium signal; in the data active means activity change below about -50%; inconclusive means about -30% to -50%; inactive means above about -30%;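 note: stimulus is agonist 54-4 at its EC80 concentration; % is set by controls: 0 for no effect and ±100 for the full control effect; the text of the record puts the active cut at -80%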
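TRPML1-DL cells, Tet-induced overnight (~16 h, 37 °C) at 1,500 cells/well, were loaded with Ca8 no-wash dye plus quencher for 45-90 min at room temperature. Compounds were pinned during FDSS kinetic reading; agonist 54-4 at EC80 (4 uM final) then added.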
* hit, by the source's call; u = inconclusive; x = no result given; [ ] = dose if it differs, or a comment.

SMILES	ClpP mod	Menin MLL FP FL	TRPML1 ag	Sfp inh	PINK1 expr mod	TRPV1 potentiator	TRPML1 blocker
COCc1cc(=O)n2[nH]c(C(F)(F)F)nc2n1	-2.0%	5.5	-0.7	19%	2.3%	2	-6
CN(C(=O)c1ccc(NC(=O)C2CCCN(C(=O)OC(C)(C)C)C2)cc1)C1CC1 (stereo not drawn)	-3.1%	x	2.2	x	3.1%	x	3
CCCCNC(=O)C1(C)CCN1C(=O)c1cc(-c2ccccc2)cs1 (stereo not drawn)	2.4%	x	0.6	x	0.1%	x	x
CCOC(=O)CSc1ncnc2c1nnn2-c1ccc(F)cc1	-7.1%	0.0	-0.5	2%	0.1%	2	17
CCN1C(=O)/C(=C/C2=Cc3ccccc3OC2C)SC1=S (stereo not drawn)	x	u	0.5	10%	1.0%	-18	9
COc1ccc(CN2C(=S)NC(C)(C)CC2(C)O)cc1 (stereo not drawn)	-0.7%	0.8	0.4	11%	-0.9%	-7	5
COCCn1c(SCC(=O)NC2(C#N)CCCCC2)nc2ccccc2c1=O	0.9%	x	0.4	x	0.6%	2	11
O=C(NCc1ccccc1)C1CCN(S(=O)(=O)c2cccc3cccnc23)CC1	1.0%	1.0	-0.4	20%	1.9%	1	-5
Cc1ccc(C(c2sc3nc(C)nn3c2O)N2CCN(C(=O)c3ccco3)CC2)cc1 (stereo not drawn)	-3.4%	7.4	-0.1	5%	x	0	-1
CCc1ccc(CNC(=O)CN2C(=O)COc3ccccc32)cc1	2.1%	2.1	-0.4	11%	x	2	-10
O=[N+]([O-])c1ccc(N/N=C/c2cccnc2)cc1	-2.3%	14	2.2	2%	-1.4%	-10	-10
Nc1nc(CSc2n[nH]c(-c3ccccc3)n2)nc(Nc2ccccc2)n1	-1.9%	6.6	-0.2	-9%	0.4%	-8	-25
O=C(CCC(=O)c1ccc(F)cc1)OCc1nnc(-c2ccc([N+](=O)[O-])cc2)o1	0.7%	x	0.7	x	-0.4%	-5	-13
CCCCCn1c(N)c(-c2nc3ccccc3s2)c2c([N+](=O)[O-])nn(C)c(=O)c21	-5.1%	-0.1	0.9	-6%	u	-3	34
CCC(Sc1nc2cc3c(cc2c(=O)n1CCCC(=O)NCc1ccc(OC)cc1)OCO3)C(=O)NCCCOC (stereo not drawn)	0.0%	x	2.6	x	-0.3%	x	-20
O=C(Cn1cc([N+](=O)[O-])cn1)NCc1cc2ccccc2[nH]1	-4.9%	-11	1.3	-6%	0.3%	-2	10
CC(Nc1ccc(N2CCOCC2)cc1)C(=O)N1c2ccccc2CC1C (stereo not drawn)	-0.5%	0.7	0.2	10µM*	0.8%	3	-9
C/C(CC(=O)Nc1cccc2c1CCCC2)=N\NC=O	x	-3.5	-0.7	7%	4.1%	23	6
Cc1cc(OCC(=O)NCC2CCC(C(=O)O)CC2)c2c(C)c(C)c(=O)oc2c1 (stereo not drawn)	5.2%	3.6	x	17%	-0.4%	-1	x
COC(=O)c1ccc([C@H]2Nc3ccc(S(=O)(=O)Nc4cccc(C)c4)cc3[C@H]3C=CC[C@H]32)cc1	1.1%	x	0.5	x	1.1%	x	-7
CCOC1CS(=O)(=O)CC1OCC (stereo not drawn)	1.9%	3.6	-0.2	17%	-2.6%	1	-12
Cc1nn(-c2ccccc2)c2nc(-c3ccncc3)cc(C(=O)NCc3ccco3)c12	-12%	3.8	6.5	-25%	-2.1%	-8	-15
O=C(c1ccc2c(=O)n(Cc3ccccc3Cl)c(=S)[nH]c2c1)N1CCOCC1	x	x	0.4	6%	13%	11	13
Cc1cccc(NS(=O)(=O)c2ccc(C)c(C(=O)NCC(c3ccccc3)N(C)C)c2)c1 (stereo not drawn)	-1.2%	x	4.6	x	1.8%	1	8
COC(=O)CN1C(=O)N/C(=C/c2ccccc2OC)C1=O	x	-3.7	-0.7	5%	-1.6%	8	-7
NC1CCCCC1N=Cc1c(O)n(CCc2ccc(F)cc2)c(=O)[nH]c1=O (stereo not drawn)	-13%	-1.7	-1.1	3%	15%	9	-3
O=C(Nc1ccc2c(c1)C(=O)c1ccccc1-2)c1ccccc1	x	x	0.1	x	16%	x	0
O=C(CN(CC1CCCO1)C(=O)CNS(=O)(=O)c1ccc(Cl)cc1)NCc1ccco1 (stereo not drawn)	-0.8%	x	-0.5	20%	3.1%	0	32
CCN(CC)C(=O)c1c2c(nc3ccccc13)-c1ccccc1CC2	8.9µM*	2.3	0.7	1%	-2.7%	3	-8
Cc1ccc(NC(=S)/C(=C(\[O-])c2ccc(F)cc2)[n+]2ccccc2)cc1	x	-0.5	0.5	45µM*	1.4%	-2	14
COc1ccc(F)c(CN2CCCC(CO)(Cc3cccc(Cl)c3)C2)c1 (stereo not drawn)	-0.3%	4.9	x	-2%	14%	-2	x
CC(C)(C)OC(=O)C[C@H]1C/C=C\C[C@H](CC(=O)NCCO)C(=O)NC[C@H](c2ccccc2)OC1=O	0.0%	x	-0.3	x	-0.8%	x	-12
CC[C@@]1(C(=O)OC)N[C@H](CN(C)C(=O)Nc2ccc(Cl)cc2)[C@@H]2C(=O)N(Cc3ccccc3)C(=O)[C@@H]21	-0.9%	x	0.4	x	-0.2%	x	-5
CN(C)Cc1c(O)ccc2c(-c3ccccc3)cc(=O)oc12	x	1.4	1.9	11%	0.2%	7	-17
CC1(c2ccccc2)CCC(=O)NC1 (stereo not drawn)	0.3%	x	0.0	x	-4.2%	x	23
CCOC(=O)C(=O)Nc1ccc(S(=O)(=O)Nc2nccc(C)n2)cc1	-2.5%	x	-0.3	x	-0.4%	x	-3
CC1CN(C(=O)c2c(Br)cnn2C)CC(C)O1 (stereo not drawn)	-1.4%	-0.6	-0.1	8%	2.3%	-6	14
CC(Nc1ccc2c(c1)OCCO2)C(=O)N1c2ccccc2CC1C (stereo not drawn)	x	0.7	0.8	-24%	2.8%	-21	-4
Cc1nc(-n2nnc(CO)c2CO)nc2c1CCC2	x	-2.3	-0.5	17%	1.5%	4	-17
O=C(COc1ccc(Cl)cc1Cl)N/N=C/CCc1ccccc1	-2.1%	4.9	0.6	13%	1.1%[38.3 µM]	4	0
Cc1ccc(C2c3[nH]c4ccccc4c3C[C@H]3C(=O)N(c4ccccc4C(=O)N4CCC[C@@H]4C(=O)O)C(=O)N23)cc1 (stereo partly drawn)	-3.4%	-6.3	x	-2%	0.7%	-2	x
Nc1ncnc2c1cnn2C1CCCCC1	x	-4.9	0.4	15%	4.1%	24	-6
COc1ccc(-n2ncc3c2CC(C)(C)CC3NC(=O)c2ccoc2C)cc1 (stereo not drawn)	-21%	x	0.4	5%	4.4%	2	-3
O=C(Nc1ccc(Cl)cn1)c1cccc2c(Br)cccc12	-10%	-2.5	0.9	-6%	-2.0%	0	-12
C=CCn1c(NC(=O)c2ccco2)c(S(=O)(=O)c2ccccc2)c2nc3ccccc3nc21	x	u	x	u	x	10	x
CCN(CC)S(=O)(=O)c1ccc(O)c(NC(=O)COc2ccc(S(=O)(=O)N3CCOCC3)cc2)c1	-1.3%	x	4.1	x	11%	x	-13
CCOC(=O)c1c(NC(=O)c2ccc(C)cc2)sc2c1CC(C)(C)NC2(C)C	x	-3.3	x	16%	x	4	x
CC(C)NC(=S)Nc1ccc(Oc2ccccc2)cc1	u	5.4	1.1	7%	4.1%	19	-15

Complete entries from above.
Listed for CC1CN(C(=O)c2c(Br)cnn2C)CC(C)O1 (stereo not drawn) : ClpP mod: -1.4%; Menin MLL FP FL: -0.6; TRPML1 ag: -0.1; Sfp inh: 8%; PINK1 expr mod: 2.3%; TRPV1 potentiator: -6; TRPML1 blocker: 14
Listed for COc1ccc(-n2ncc3c2CC(C)(C)CC3NC(=O)c2ccoc2C)cc1 (stereo not drawn) : ClpP mod: -21%; Menin MLL FP FL: x; TRPML1 ag: 0.4; Sfp inh: 5%; PINK1 expr mod: 4.4%; TRPV1 potentiator: 2; TRPML1 blocker: -3
Listed for O=C(Nc1ccc(Cl)cn1)c1cccc2c(Br)cccc12 : ClpP mod: -10%; Menin MLL FP FL: -2.5; TRPML1 ag: 0.9; Sfp inh: -6%; PINK1 expr mod: -2.0%; TRPV1 potentiator: 0; TRPML1 blocker: -12

(cont.)
SMILES	ClpP mod	Menin MLL FP FL	TRPML1 ag	Sfp inh	PINK1 expr mod	TRPV1 potentiator	TRPML1 blocker
COc1ccc(C(=Cc2ccccc2[N+](=O)[O-])C(=O)O)cc1	0.2%	x	0.1	x	-0.4%	x	45
Cc1cc(-c2ccc(/C=N/n3cnnc3)o2)ccc1Cl	-15%	u	1.0	1%	-1.1%	20	5
Cc1noc(C)c1COc1cccc(C(=O)Nc2ccccc2)c1	-4.2%	x	-1.8	x	1.1%	-17	-6
O=[N+]([O-])c1ccc(Oc2ccc(F)cc2)c2ccncc12	3.0%	4.7	1.2	-7%	2.7%	7	5
CC1CCCC(NC(=O)COC(=O)Cc2ccsc2)C1C (stereo not drawn)	1.0%	5.8	-1.1	11%	-1.8%	-3	-3
COc1ccc2c(c1OC)C(=O)N1C2SC[C@H]1C(=O)NC1CC1 (stereo partly drawn)	u	-3.6	x	9%	-0.4%	4	x
C=C(C)COc1ccc2c(C)c(CCC(=O)NC3CC3)c(=O)oc2c1	3.8%	0.7	-0.9	4%	1.5%	-2	8
O=C(OCc1cn([C@@H]2C[C@H](c3ccc(Cl)cc3)N(Cc3cccs3)C[C@H]2O)nn1)c1ccccc1	-2.9%	x	0.3	x	-0.3%	x	-11
CCc1ccc(-n2nnc(-c3nc(-c4ccccc4)no3)c2C)cc1	-0.2%	x	3.1	x	1.2%	x	26
O=C(NCC(O)CO)c1csc(Nc2cccc3ccccc23)n1 (stereo not drawn)	0.0%	0.8	-0.7	-18%	-1.7%	-6	8
O=C(NCC(O)c1ccc([N+](=O)[O-])cc1)c1cccc(S(=O)(=O)N2CCOCC2)c1 (stereo not drawn)	-32%	x	-0.2	16%	-1.2%	-3	-4
Cc1ccc(-n2cnc3c(=O)[nH]cnc32)cc1[N+](=O)[O-]	1.9%	x	-0.6	x	-0.3%	x	8
COCCN(C(=O)COC(=O)CCOc1cccc(C)c1)c1c(N)n(Cc2ccccc2)c(=O)[nH]c1=O	x	x	0.2	x	-3.4%	3	21
Cc1onc(-c2c(Cl)cccc2Cl)c1C(=O)Nc1nccs1	x	-0.4	1.0	-5%	-0.4%	9	-28
